CDC25B-CDK2 inh = human CDC25B-CDK2/CyclinA binding inhibition; z-score (concentration not given with the values); HTRF CDC25B-CDK2/CyclinA binding, anti-His/anti-Flag; stronger effect = higher value; P30305+P24941; 94,000 compounds, 0.72% hits;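 further: score is relative to mean and SD of negative controls; strong numbers were not always called active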
TAR Tat displ = HIV-1 TAR-Tat binding disruption; 100,000 compounds, 0.6% hits; HIV-1 TAR RNA, Tat peptide displacement FRET; stronger effect = higher value; z-score (no concentration beside the values);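 further: score is relative to mean and SD of negative controls; some compounds called inactive have numbers as strong as hits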
Numbers without * were called inactive; . = not tested or not shown.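 How the source made its calls: active means z-score from 3 up in half or more of its runs; inactive means the rest.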 An unsorted share of the library; 0.94% or so of the library scored in one or more.

Values run as follows: CDC25B-CDK2 inh	TAR Tat displ
- CCCCCOC(=O)C1=C(C)Nc2nnnn2C1c1ccc(C(=O)O)cc1 (configuration not stated)
    .	0.29
- Cc1cc(=O)n2c(n1)NC(N1CCc3ccccc31)=NC2c1ccc(F)cc1 (configuration not stated)
    -1.3	0.13
- C=CCOC(=O)C1=C(C)Nc2nc(SCCCC)[nH]c(=O)c2C1c1ccc(OC)cc1 (configuration not stated)
    -0.39	-0.15
- CCCS(=O)(=O)NCCc1cc2c(C)ccc(C)c2[nH]c1=O
    -2.1	.
- CCc1ccc(CN2CCN(S(C)(=O)=O)CC2)cc1
    0.08	-0.67
- CSc1ncc(C(=O)NN)n1C
    -2.1	.
- CSc1cccc(NC(=O)CCS(=O)(=O)c2ccc3c(c2)CC(C)N3C(=O)C2CC2)c1 (configuration not stated)
    .	0.4
- COc1ccc(F)cc1S(=O)(=O)NCC(c1ccc(N(C)C)cc1)N(C)C (configuration not stated)
    .	-0.68
- O=C(c1cc2ccccn2n1)N1CCN(c2ccc(F)cc2)CC1
    -1.4	.
- N#Cc1cc(Cl)ccc1N1C(=O)C=CC1=O
    2.5	.

Reformatted as labelled records: 4 of the compounds above
> C=CCOC(=O)C1=C(C)Nc2nc(SCCCC)[nH]c(=O)c2C1c1ccc(OC)cc1 (configuration not stated)
  CDC25B-CDK2 inh: -0.39
  TAR Tat displ: -0.15

> CCc1ccc(CN2CCN(S(C)(=O)=O)CC2)cc1
  CDC25B-CDK2 inh: 0.08
  TAR Tat displ: -0.67

> O=C(c1cc2ccccn2n1)N1CCN(c2ccc(F)cc2)CC1
  CDC25B-CDK2 inh: -1.4
  TAR Tat displ: .

> CCCS(=O)(=O)NCCc1cc2c(C)ccc(C)c2[nH]c1=O
  CDC25B-CDK2 inh: -2.1
  TAR Tat displ: .

(cont.)
Values run as follows: CDC25B-CDK2 inh	TAR Tat displ
- Clc1ccc(-c2noc3ncnc(N(Cc4ccco4)CC4CCCO4)c23)cc1 (configuration not stated)
    0.04	0.82
- COc1ccc(Nc2nc(C)nc3c2CCC3)cc1Cl
    -1.4	1.4
- c1ccc(-c2csc(Nc3cccnc3)n2)cc1
    0	0.84
- CN(C1CCCC1)C1CCN(c2ccc3nnc(-c4ccc(F)cc4)n3n2)CC1
    -0.98	0.6
- O=C(c1ccc2c(c1)N(Cc1ccccc1)CCS2)N1CCN(c2ccccn2)CC1
    -0.31	1.9
- CS(=O)(=O)Nc1ccc2c(c1)N(S(=O)(=O)c1ccc(F)cc1)CCC2
    .	2
- COc1ccc(C2Nc3cc(C)c(C)cc3NC3=C2C(=O)CC(C)(C)C3)cc1OC (configuration not stated)
    0.09	-0.41
- O=C(Nc1ccc(F)cc1)C1CCN(c2ccccc2)C1=O (configuration not stated)
    .	-0.17
- Cn1ncc2c(Nc3ccc(F)cc3)nc(N3CCCC3)nc21
    .	0.16
- COc1cccc(NC(=O)Nc2nnc(COc3ccccc3F)s2)c1
    1.3	1.3
- Cc1ccc(OCC2CN(Cc3ccccc3)C(=O)O2)cc1 (configuration not stated)
    0.31	.
- O=C(NC1CCCC1)c1ccc(SCCN2CCOCC2)nc1
    .	0.31
- Cc1cc(=O)[nH]c(Nc2ccc3c(c2)OCO3)n1
    -2.1	2.1
- CCN(CC(O)c1cccc(O)c1)c1ncnc2c1cnn2C (configuration not stated)
    .	3.1
- CCC(c1ccccc1)c1nnc(NC(=O)Nc2ccc(Cl)cc2Cl)s1 (configuration not stated)
    -1.3	.
- O=C(c1cc2ccc3cccnc3c2[nH]1)N1CCC(c2ccccc2)C1 (configuration not stated)
    .	1.4
- CC1=C(C(N)=O)C(c2cccnc2)n2nc(SCc3ccccc3)nc2N1 (configuration not stated)
    .	1.4
- O=C(CN1N=NC2C(=O)N(c3ccc(F)cc3)C(=O)C21)Nc1ccccc1Cl (configuration not stated)
    .	1.3
- CCCC(=O)N(c1ccc2oc(=O)sc2c1)S(=O)(=O)c1ccc(Cl)cc1
    -1.1	0.43
- Cc1ccc(-c2cc(C(F)F)nc(NCc3cccs3)n2)cc1
    0.07	.
- Cc1c(C(=O)NCCC2=CCCCC2)sc2nc3n(c(=O)c12)CCCC3
    .	2.2
- Cc1ccc(S(=O)(=O)Nc2ccc3[nH]c(=O)cc(C)c3c2)cc1
    .	2.1
- Cc1ccc(-n2nc(C)c3c(C(F)(F)F)cc(C)nc32)cc1
    -1.9	2.7
- CC(C)c1ccc(N(C(=O)CC2CCCCC2)C2C=CS(=O)(=O)C2)cc1 (configuration not stated)
    -0.23	1.5
- CCc1nnc(NC(=O)CSc2nnc(-c3cc4cc(Cl)ccc4o3)n2C)s1
    .	0.6
- CCCNS(=O)(=O)c1ccc(-c2cc(C(=O)OC)no2)s1
    .	-0.84
- Cn1c(=O)c(-c2noc(CCC(=O)Nc3ccc(F)c(Cl)c3)n2)nn(-c2ccccc2)c1=O
    .	1.2
- O=C(CSc1ncc(S(=O)(=O)c2ccc(Cl)cc2)c(=O)[nH]1)Nc1ccc(F)cc1
    -1.9	2.6
- O=S(=O)(c1ccc(Cl)c2ccccc12)N1CCCCCC1
    -2.9	.
- Cc1nc(C)c(-c2csc(Nc3ccccc3)n2)s1
    -1.8	0.89
- O=C(Oc1ccc(Oc2ccccc2)cc1)N1CCC(O)CC1
    -1.5	.
- O=C1C2CC=CCC2C(=O)N1c1ccc(Oc2ccc(Cl)cc2)cc1 (configuration not stated)
    0	0.78
- O=S(=O)(NCc1ccc2c(c1)OCO2)c1ccc(N2CCCCS2(=O)=O)cc1
    .	1.9
- Cn1c(=O)oc2cc(S(=O)(=O)NCCc3nc(-c4ccc(F)cc4)n[nH]3)ccc21
    .	1.2
- O=C(Nc1ccc2nccnc2c1)c1cccnc1Oc1ccc(Cl)cc1
    4.9	.
- CC1N=C(SCC(=O)c2ccc(F)cc2)N2C(C)N=C(SCC(=O)c3ccc(F)cc3)N12 (configuration not stated)
    -0.04	.
- Cc1ccc(C)c(/C=C/c2onc(C)c2S(=O)(=O)N2CCCC(C(=O)Nc3cc(C)on3)C2)c1 (configuration not stated)
    .	0.07
- NC(=O)CCc1nc(-c2cccs2)no1
    -1.6	1.2
- CCc1nnc2c3ccccc3nc(Nc3cccc(Cl)c3)n12
    -0.72	1.7
- CCOC(=O)C(C#N)C(=O)c1c(-c2c(Cl)cccc2Cl)noc1C (configuration not stated)
    -0.92	.
- CC(=O)NC1=NN(C(C)=O)C(C)(c2cccs2)S1 (configuration not stated)
    -0.19	.
- Cc1ccccc1OCc1nc(-c2ccccn2)no1
    -1.4	-1.2
- CC1(C)C=CC(=O)[C@@]2(C)C1CC(=O)[C@]1(C)C2CC[C@@]2(C)[C@H](c3ccoc3)OC(=O)C3OC321 (some centres not stated)
    .	3.6
- CCn1nc(C)c(CNS(=O)(=O)c2ccc(C(C)C)cc2)c1C
    .	-0.14
- O=C(CSc1ccc(-c2cccs2)nn1)c1ccccc1
    .	0.75
- Cc1cc(C)n(C(=O)c2sccc2S(=O)(=O)N(C)c2ccc(F)cc2)n1
    -1.7	0.04
- CCCOC(=O)c1c(NC(=O)c2nc3ncccn3n2)sc(C(=O)OCC)c1C
    -2.6	1.3
- COC(=O)CSc1nc2sc3c(c2c(=O)n1-c1ccc(OC)cc1)CCCC3
    -2.6	-1.2
- COc1ccc(CN(CCc2ccccc2)S(=O)(=O)c2cccc3nsnc23)cc1
    -0.4	.
- Cc1cc(-c2nnc(CSc3nnc(N)s3)o2)ccc1[N+](=O)[O-]
    -0.87	.

Carrying on.
Values run as follows: CDC25B-CDK2 inh	TAR Tat displ
- CCCCNC(=O)O/N=C(\C)c1ccc2cc(OC)ccc2c1
    -1.2	.
- Cc1cc(CN2CCN(c3cccc(Cl)c3)CC2)cs1
    .	2.5
- COC(=O)Cn1ncc2c3ccccc3n(Cc3c(C)cc(C)cc3C)c2c1=O
    0.72	0.66
- O=C(O)CCCn1sc2ccccc2c1=O
    .	2.3
- COCCN(CCS(=O)(=O)N1CCNCC1)S(=O)(=O)c1ccc(F)cc1
    .	0.95
- Cc1ccsc1C(=O)Nc1ccc2[nH]c(=O)sc2c1
    .	1.8
- CC1(C)CC(=O)C2=C(C1)NC(=O)CC2c1ccc2ccccc2c1 (configuration not stated)
    -0.81	1.5
- CCn1ccc2cc(S(=O)(=O)N3CCCN(C(=O)Nc4ccsc4C(=O)OC)CC3)ccc21
    .	0.27
- CC(C)C(NS(=O)(=O)c1ccc2c(c1)CCCC(=O)N2)C(=O)N1CCOCC1 (configuration not stated)
    .	1.9
- CC(C)CCNC(=O)C(=O)Nc1c2c(nn1-c1ccc(Cl)cc1)CSC2
    .	0.93

Next compounds follow.
Structure,CDC25B-CDK2 inh,TAR Tat displ
O=C(COc1ccccc1F)Nc1ccc(OCc2cc(=O)n3[nH]cnc3n2)cc1,.,2.4
COc1ccc(Cl)cc1NC(=O)c1nn(-c2ccccc2)ccc1=O,-1.3,6.7
CC(=O)Oc1c(S(=O)(=O)c2ccccc2)c(C)nn1-c1ccccc1,-2.7,.
CCCC(O)c1nc2ccccc2n1CCC (configuration not stated),-1.2,0.27
CCOC(=O)c1nn(-c2ccccc2)c(=O)cc1NC(C)C,.,1.3
CCOc1ccccc1-n1nnc(-c2nc(-c3ccc4c(c3)OCO4)no2)c1N,.,0.66
Cc1cc(NS(=O)(=O)c2ccc(NC(=O)c3ccc(C(C)(C)C)c(Br)c3)cc2)no1,0.48,.
Cc1nnc2sc3ccccc3n12,0.2,.
CSc1ccc(C2Nc3ccccc3NC3=C2C(=O)CC(c2ccc4c(c2)OCO4)C3)cc1 (configuration not stated),-1,-0.11
CC(C)OCCCNC(=O)c1c(O)c2c([nH]c1=O)CCCC2,.,1.7
CCC(Sc1nc2ccccc2o1)C(=O)O (configuration not stated),-0.79,-0.41
COc1ccc(CN(C)CCc2ccccn2)cc1,0.03,0.63

In a second layout: three of the compounds above.
> CC(=O)NC1=NN(C(C)=O)C(C)(c2cccs2)S1 (configuration not stated)
  CDC25B-CDK2 inh = -0.19
  TAR Tat displ = .
> Cc1ccsc1C(=O)Nc1ccc2[nH]c(=O)sc2c1
  CDC25B-CDK2 inh = .
  TAR Tat displ = 1.8
> O=C(O)CCCn1sc2ccccc2c1=O
  CDC25B-CDK2 inh = .
  TAR Tat displ = 2.3

(continued)
Structure,CDC25B-CDK2 inh,TAR Tat displ
O=S(=O)(NC(c1nnc(-c2ccccc2)o1)c1ccccc1Cl)c1ccc(F)cc1 (configuration not stated),.,1.3
O=c1c(S(=O)(=O)c2ccccc2)c[nH]c2cc3c(cc12)OCO3,-0.12,.
O=c1cc(-c2ccncc2)[nH]c2nc3ccccc3n12,7.3,0.54
Cc1ccc(C)c(NS(=O)(=O)c2ccc(-c3n[nH]c(C)c3C)s2)c1,.,-0.65
CC(=O)c1cnn(C(=O)CNC(=O)c2cccnc2Oc2ccccc2)c1C,-2.5,.
COc1ccc2c(C)cc(SCc3c(C)noc3C)nc2c1,-0.99,-2.4
COc1ccc(S(=O)(=O)N2CCn3c(nc4ccccc43)C2)cc1OC,-1.4,-0.02
Cc1nc(C)c(S(=O)(=O)Oc2ccc3occ([N+](=O)[O-])c3c2)s1,-0.25,.
CC(=O)/C(C#N)=C1/N=C(C)CS1,2.1,.
COc1ccc(-c2nc(=S)c3c(n2CCN2CCOCC2)CC(C)(C)OC3)cc1,2.6,-0.13
Cc1csc2ncc(C(=O)NC3CCCc4ccccc43)c(=O)n12 (configuration not stated),.,1.3
CCC(C(=O)NCCCN(CC)CC)n1c2ccccc2c2nc(=O)cc(C)n21 (configuration not stated),-0.51,-5.2
O=c1[nH]cc(Br)c(=O)[nH]1,-2.4,.
CCOC(=O)c1c(C)oc2cc(S(=O)(=O)O)c(O)cc12,-0.38,.
O=c1cc(-c2ccccc2)[nH]c2ccccc12,-0.93,0.26
CC(C)CNc1nc(N)c([N+](=O)[O-])c(Nc2ccc(Cl)cc2)n1,.,-0.46
COc1ccc(OC)c(S(=O)(=O)Nc2cccnc2Sc2ccc(C)cc2)c1,-0.44,.
O=C(CN1C(=O)COc2ccc(S(=O)(=O)N3CCCC3)cc21)NCc1ccco1,1.9,0.79
COc1ccccc1N1CCN(S(=O)(=O)c2ccc(-c3cnoc3)s2)CC1,-0.18,.
Cc1cc(S(=O)(=O)N2CC=C(c3ccccc3)CC2)c(C(F)(F)F)o1,-1.8,.
Cc1cc(=O)n(C(C)C(=O)N2CCc3ccccc3C2)c2c1c(C)nn2-c1ccccc1 (configuration not stated),.,1.1
CC1CSc2ccc(S(=O)(=O)NCc3ccccn3)cc2NC1=O (configuration not stated),.,1.1
COc1ccccc1C1C2=C(CC(C)(C)CC2=O)Nc2nc(-c3cccc(C)c3)nn21 (configuration not stated),-1,1.1
Cc1cc(-c2ccc(S(=O)(=O)NC3CC3)s2)n[nH]1,.,0.67
Cc1ccc(CNC(=O)Nc2ccc(C(C)(C)C)cc2)n1C,-1.6,.
CC1CCN(S(=O)(=O)c2ccc3c(c2)CCN3C(=O)Nc2ccccc2Br)CC1,0.02,1.4
O=C(c1cnn(-c2ccccc2)c1C(F)(F)F)N1CCN(c2ccnc3cc(Cl)ccc23)CC1,-1.4,.
c1ccc(-c2noc(N3CCN(c4ncccn4)CC3)n2)cc1,.,1.3
CCCc1nn2c(=O)cc(CSCC(=O)Nc3nnc(CC)s3)nc2s1,.,0.88
CC(C)CCNC(=O)c1[nH]nc2c1COc1ccccc1-2,.,-0.72
COc1cc2c(cc1OC)C(c1ccc(C)s1)CC(=O)N2 (configuration not stated),-0.78,.
O=C(NCc1ccc2c(c1)OCO2)c1cccc(-c2nc(-c3ccccc3)no2)c1,.,3

Assay outcomes as filed in PubChem.
